AF4-AF9 inh = blocks AF4 peptide binding to human AF9 | AlphaScreen, biotin-AF4 peptide binding to FLAG-AF9 | inhibition, % at 10 µM | hit rate 0.47% among 350,000 | AID 651704;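 active means every replicate reaching a set inhibition limit, whatever the replicate mean, cut at about 25% in these data; inconclusive means mean inhibition reaches that limit but some replicates miss it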;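 further: 0% = plate neutral control median and 100% = total signal loss; the record names both 10 and 1 µM as test concentration; the first replicate is given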
Calb FLC = C. albicans growth modulation with fluconazole; C. albicans CaCi-2 (fluconazole-resistant clinical isolate) + fluconazole, Alamar Blue growth, 48 h; growth inhibition, % (concentration not given with the values); hit rate 0.57% among 300,000;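 active means most replicates above 75%; inconclusive means exactly half above 75%; inactive means most below 75%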;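 further: all wells also contain fluconazole at 8 µg/ml as a sub-toxic cotreatment; 0% = median of DMSO wells and 100% = median of geldanamycin control wells; wells of about 8 µL received 7.5 nL stock; the first replicate is given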
RanGTP-Imp inh = disruptors of Ran-importin-beta complex formation – biochemical, FRET, CFP-Ran, YFP-importin-beta, homogeneous, primary screen; inhibition, % (test concentration not listed); cell-free CFP-Ran/YFP-importin-beta FRET ratio; hit rate 1.1% among 300,000; AID 2216;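 active means most replicates above 15%; inconclusive means exactly half above 15%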;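 further: 0% = DMSO wells and 100% = Ran loaded with GDP instead of GTP; wells of about 40 µL received 100 nL stock; the first replicate is given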
Bfl-1 A1 inh = inhibitors of the anti-apoptotic protein A1, read as caspase activation. MEF A1-2A-BIM cells, Caspase-Glo 3/7 luminescence, 3 h; percent of clofoctol response, vehicle zero. caspase activation, % (test concentration not listed). hit rate 0.066% among 330,000. AID 2462;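 active means over half of replicate activation scores above 10%, or exactly half above 10 with the replicate mean above 10; inconclusive means replicate mean below 10 yet half the replicates above 10; inactive means over half of replicates below 10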;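 further: wells of about 30 µL received 50 nL stock; many hits fall short of the cut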
LANA-H2B inh = blocks KSHV LANA binding to histone H2A/H2B. hit rate 0.6% among 320,000. inhibition, % (no concentration beside the values). cell-free LANA-H2A/H2B peptide, fluorescence polarization. AID 2629. Q9QR71; in the data active means inhibition mostly above about 10%, no sharp cut-off; inactive means mostly below about 6.7%;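 further: stock transfer was 7.5 nL into about 10 µL; 0% = median of vehicle wells and 100% = median of positive control wells; one replicate is shown; the record names a cut of 25% in any replicate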
Target sequence (Q9QR71 whole entry, looked up): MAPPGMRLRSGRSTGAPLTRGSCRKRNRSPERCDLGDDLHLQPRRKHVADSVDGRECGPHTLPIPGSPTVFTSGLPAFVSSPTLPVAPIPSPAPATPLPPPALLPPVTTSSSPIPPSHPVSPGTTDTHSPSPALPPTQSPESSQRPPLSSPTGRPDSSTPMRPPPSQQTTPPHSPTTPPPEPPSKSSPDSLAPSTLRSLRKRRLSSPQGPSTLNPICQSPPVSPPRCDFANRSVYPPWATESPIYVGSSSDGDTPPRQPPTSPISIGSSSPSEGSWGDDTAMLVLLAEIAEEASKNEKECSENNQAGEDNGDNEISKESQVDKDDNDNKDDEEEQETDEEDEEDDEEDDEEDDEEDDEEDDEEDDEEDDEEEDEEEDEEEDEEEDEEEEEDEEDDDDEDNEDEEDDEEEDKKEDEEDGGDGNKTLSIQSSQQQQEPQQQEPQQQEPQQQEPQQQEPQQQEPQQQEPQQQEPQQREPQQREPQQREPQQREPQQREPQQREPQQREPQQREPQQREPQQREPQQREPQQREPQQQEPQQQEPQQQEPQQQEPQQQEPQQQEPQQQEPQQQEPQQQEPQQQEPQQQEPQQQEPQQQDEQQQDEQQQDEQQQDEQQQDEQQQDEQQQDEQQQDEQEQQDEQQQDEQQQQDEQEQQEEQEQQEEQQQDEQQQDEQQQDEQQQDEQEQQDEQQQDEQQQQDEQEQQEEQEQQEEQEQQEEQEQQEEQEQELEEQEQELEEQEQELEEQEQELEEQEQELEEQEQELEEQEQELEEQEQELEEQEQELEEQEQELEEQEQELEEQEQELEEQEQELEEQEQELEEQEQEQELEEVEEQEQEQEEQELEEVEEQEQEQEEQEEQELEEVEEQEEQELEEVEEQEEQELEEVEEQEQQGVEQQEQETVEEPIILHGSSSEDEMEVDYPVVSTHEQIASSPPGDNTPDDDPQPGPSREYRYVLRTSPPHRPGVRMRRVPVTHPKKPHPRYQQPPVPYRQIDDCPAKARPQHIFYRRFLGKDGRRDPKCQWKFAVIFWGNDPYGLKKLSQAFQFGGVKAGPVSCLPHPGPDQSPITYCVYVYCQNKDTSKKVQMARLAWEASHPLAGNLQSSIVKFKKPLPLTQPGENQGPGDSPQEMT
Vif TR-FRET = inhibitors of Vif binding to APOBEC3G peptide, primary screen, biochemical, TR-FRET, GST-Vif 1-94, biotin-A3G peptide, dose response retest (AID 1117319); TR-FRET GST-Vif / biotin-A3G peptide binding; higher % means a stronger effect; test concentration not given here; strong numbers were not always called active; inhibition, %; hits with a dose series show IC50 in µM; hit rate 0.57% among 260,000;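 active means above the screen mean plus three standard deviations and confirmed in dose response; inconclusive means results disagree or hit not tested in dose response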;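 further: Vif residues 1-94 fused to GST binding biotinylated APOBEC3G peptide 110-148; 0% = full assay without inhibitor and 100% = GST in place of GST-Vif; retest series ran down from 100 µM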
Beta apoptosis = beta cell apoptosis inhibition; hit rate 0.8% among 300,000; INS-1E cytokine-induced death, ATP luminescence, 48 h; percent of positive-control rescue, neutral wells zero; protection from apoptosis, % (test concentration not listed);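 active means all replicates at 75% or more, or half of them and the mean; inconclusive means half reach 75% but not the mean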;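 further: 0% = cytokine-treated negative control wells and 100% = positive control rescue; higher means more ATP so stronger rescue from cytokine killing; wells of about 40 µL received 100 nL stock; the first replicate is given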
T cruzi repl = blocks replication of Trypanosoma cruzi | inhibition, % (no concentration beside the values) | T. cruzi beta-gal in NIH3T3, luminescence, 90 h | hit rate 1.4% among 300,000;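 active means mean inhibition across valid replicates above about 55%, limit read from the data; inconclusive means mean below that limit but half or more replicates reach it; inactive means mean below it, under half of replicates reach it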;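 further: signal also drops with host cell toxicity which is not excluded here; 0% = plate median of DMSO wells and 100% = zero luminescence signal; higher percent means less beta-gal luminescence so fewer parasites; stock transfer was 50 nL into about 50 µL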
The depositor's hits bear a star; ? = inconclusive; · = no result given; & = joins results of further samples. The order is random. About 4.3% of those tested had a hit in this group.

SMILES	AF4-AF9 inh	Calb FLC	RanGTP-Imp inh	Bfl-1 A1 inh	LANA-H2B inh	Vif TR-FRET	Beta apoptosis	T cruzi repl
COc1ccc(C(=O)NC(CC(=O)O)c2cc([N+](=O)[O-])ccc2Cl)c(SC)c1 (stereo not drawn)	-1.9	-2	0.2	-0.6	-1.9	-3%	1	-3
COc1cc(OC)c(NC(=O)Cn2cnc3sc(C)c(S(=O)(=O)N4CCOCC4)c3c2=O)cc1Cl	0.1	-8	-4.1	-0.4	1.6	·	4	3
C=CCNc1nc(N(c2ccccc2)c2ccccc2)nc(-n2ccnc2)n1	·	18	-1.0	0.0	-2.7	7%	0	36
CCN1CCN(c2cc(C)c3cc(NC(=S)N4CCN(c5ccc(F)cc5)CC4)ccc3n2)CC1	6.3	7	2.8	0.9	-1.6	-6%	8	36
CC(=O)Nc1cc2nc(C)n(Cc3ccccc3)c2nc1C	3.0	-1	0.6	1.3	0.6	-2%	0	-1
Cc1ccc(Sc2ccc(C(=O)N3CCOCC3)cc2[N+](=O)[O-])cc1	7.6	7	-3.5	1.8	-3.1	-6%	0	10
Cc1cc(C(=O)COc2ccccc2C(N)=O)c(C)n1CC1CCCO1 (stereo not drawn)	5.7	19	-2.2	-0.2	3.8	?	·	16
O=C(NCCOc1ccccc1)C1CCCCC1	-1.7	1	-0.4	-0.7	2.8	·	-7	-10
CCCOc1ccc(-c2nc(N)n[nH]2)cc1	·	15	0.2	-0.8	2.4	-1%	-3	0
COc1ccc(CCNc2ncnc3c2c(C)c(C)n3CCO)cc1OC	-15	9	-0.6	-1.0	-4.1	-5%	8	-5
COc1ccc(Nc2nc(NCCO)nc(N3CCCC3)n2)cc1	-13	-10	-1.5	-0.8	0.2	·	-5	-16
CCOCCn1c(N2CCN(c3ccccc3)CC2)nc2c1c(=O)[nH]c(=O)n2C	-0.5	-10	4.9	0.0	4.1	2%	0	-22
CCOC(=O)c1c(CN2CCN(C)CC2)oc2ccc(OC)cc12	·	-1	-0.4	1.2	1.4	2%	-6	-9
Cc1nnc(SCC(=O)NCCN2C(=O)CSC2=O)n1-c1ccccc1	-1.4	-14	-2.5	-0.4	-1.6	·	0	-24
Cn1c(=O)[nH]c(=O)c2c1nc([N+](=O)[O-])n2Cc1ccccc1	-3.8	36	-1.0	0.3	0.1	·	98*	35
COc1ccc2cc(CCNS(=O)(=O)c3ccc(NC(C)=O)cc3)c(=O)[nH]c2c1	-0.4	7	-2.8	0.5	3.4	·	-23	-1
O=C(COC(=O)/C=C/c1ccc(F)cc1)Nc1cccc(S(=O)(=O)N2CCCC2)c1	3.9	-33	1.5	0.5	-0.5	·	4	-8
Cc1ccc(NC(=O)COC(=O)CCOc2ccccc2C)cc1	-1.1	-10	-1.0	0.0	-5.5	-2%	-1	-3
COc1ccc(NC(=O)CN(C)C(=O)CCCc2nc3ccccc3s2)cc1	0.6	6	-1.5	-1.2	·	6%	-10	-2
Cc1cccc(C(=O)O/N=C2/CC3CCC2(C)C3(C)C)c1 (stereo not drawn)	·	9	0.5	0.1	-3.1	-2%	-4	2
CCCc1ccc(-c2cc(C(=O)NN3CCOCC3)c3ccccc3n2)cc1	·	0	-0.4	-0.4	-4.7	-5%	5	22
CCCCN(CC)CCNC(=O)CNC(=O)Cn1ccc2ccccc2c1=O	·	-3	3.7	0.5	2.0	33%	1	-5
CCC(NC(=O)c1ccc([N+](=O)[O-])cc1[N+](=O)[O-])c1ccccc1 (stereo not drawn)	·	-1	-0.3	-1.4	2.6	-1%	1	58*
O=c1nc(/C=C/c2cc([N+](=O)[O-])ccc2Cl)cc(C(F)(F)F)[nH]1	·	89*	3.4	·	0.3	6%	-7	-20
Cc1ccc(CNS(=O)(=O)c2ccc3c(c2)NC(=O)CS3)cc1	-5.5	0	0.1	-1.5	1.9	1%	0	-7
COc1ccc(CCNC(=O)CCn2c(=O)c3ccccc3n(CC(=O)NCC3CCCO3)c2=O)cc1OC (stereo not drawn)	5.6	2	1.0	-0.3	-4.6	0%	6	2
Cc1ccc(S(=O)(=O)c2cc3ccccc3oc2=Nc2ccc3c(c2)OCCO3)cc1	·	4	1.2	0.7	2.6	20%	3	8
Cc1ccc(/C=C/C(=O)OCC(=O)Nc2cccnc2Cl)o1	-1.5	·	·	0.1	2.1	3%	-1	·
CCOC(=O)Cc1csc(NC(=O)c2ccc(S(=O)(=O)N3CCCCC3)cc2)n1	·	8	5.2	-0.5	-2.0	?	2	2
C[C@H](CO)N1C[C@H](C)[C@@H](CN(C)C(=O)Nc2ccc(C(F)(F)F)cc2)Oc2c(NC(=O)Nc3ccc4c(c3)OCO4)cccc2C1=O	4.0&11	·	·	0.0	-0.4	·	-3	·
COc1ccc(CN2CCC(CO)(CCOc3ccccc3)CC2)c(OC)c1C	2.6	1	9.9	0.5	-1.8	·	2	24
O=C(COC(=O)c1cccnc1Nc1cccc(C(F)(F)F)c1)NC1CCS(=O)(=O)C1 (stereo not drawn)	4.8	-10	-1.2	-2.1	1.1	·	-5	-16
O=c1c2ccccc2oc2nc(-c3ccco3)n(Cc3ccccc3)c(=O)c12	·	?	2.4	-3.3	1.0	-4%	7	11
COc1cc(C(C)=O)ccc1OCC(O)CN1CCN(c2ccc(C)cc2C)CC1 (stereo not drawn)	2.7	-4	1.8	0.8	0.4	·	1	29
COc1ccc(C2C=C(C)Nc3nc(SC)nn32)cc1 (stereo not drawn)	·	-1	0.7	0.3	-1.4	0%	-2	-13
Clc1ccc(/C=N/Nc2nnc(Cl)c3ccccc23)cc1	-1.3	5	?	-5.4	1.1	1%	6	-9
CCC(=O)N1CCc2cc(S(=O)(=O)CCC(=O)Nc3ccc(OC)c(OC)c3)ccc21	-5.8	6	2.2	0.4	1.4	·	1	2
Cc1cccn2c(=O)c3cc(C(=O)NCCN4CCOCC4)c(=N)n(Cc4cccnc4)c3nc12	0.9	12	167*	1.2	-2.0	10%	-8	-7
O=C(NCCS(=O)(=O)N1CCN(c2ccccc2F)CC1)c1cc(=O)c2ccccc2o1	0.9	-11	3.1	0.0	-2.9	-2%	·	1
CCOC(=O)Cc1c(C)[nH]n(-c2ccccc2)c1=O	1.4	-17	4.5	0.6	-1.1	2%	-9	-5
CCOC(=O)COc1nc(OC)nc(N2CCOCC2)n1	·	11	7.1	0.3	0.8	-2%	-3	-19
COc1cc(/C=C(\NC(=O)c2ccccc2)C(=O)NCC(=O)O)c([N+](=O)[O-])cc1OC	·	6	?	-0.3	1.0	-2%	·	-39
CCOc1ncccc1C(=O)NCC(c1ccco1)N1CCCCC1 (stereo not drawn)	3.5	·	·	-1.0	0.0	-11%	-7	·
COc1ccc(/C=C2/SC(=S)N(CC(=O)O)C2=O)cc1OCc1ccc(Cl)cc1	1.5	1	-13	1.8	1.2	·	4	13
CN(C)C1(CNC(=O)CC(NC(=O)c2ccccc2Cl)c2ccccc2)CCCCC1 (stereo not drawn)	-7.0	-3	0.5	-0.9	2.1	21%	0	-9
CC1CCN(C(=O)Cn2nnc(-c3cccs3)n2)CC1	-4.7	-3	-1.4	0.6	2.7	·	-7	-3
CN1CCC(=NNC(=O)CSCc2ccccc2)CC1	·	-1	-1.0	-0.3	0.0	3%	3	1
O=C(NCC1COc2ccccc2O1)C1CCC(CNc2c(N3CCCCC3)c(=O)c2=O)CC1 (stereo not drawn)	-3.2	·	·	0.1	5.5	2%	2	·
O=C(CC1CCCC1)Nc1nnc(C2CC2)s1	·	-17	6.6	0.9	4.1	27%	-2	-7
CN(C[C@H](Cc1ccccc1)N(C[C@H](Cc1cccc2ccccc12)N(CCc1ccccc1)N=O)N=O)N=O	-0.3	-8	0.2	0.2	-3.0	·	1	13

The list goes on:
SMILES	AF4-AF9 inh	Calb FLC	RanGTP-Imp inh	Bfl-1 A1 inh	LANA-H2B inh	Vif TR-FRET	Beta apoptosis	T cruzi repl
Cc1ccc(S(=O)(=O)n2[nH]c(=O)cc2N)cc1	-5.0	-2	-4.1	1.0	1.6	-7%	-9	-14
O=C(CSc1nnc(-c2ccncc2)n1CC1CCCO1)NCc1ccccc1 (stereo not drawn)	·	4	-1.3	1.2	4.0	6%	-1	-10
COc1ccccc1C(=O)O/N=C(\N)c1ccccn1	-2.9	-15	2.4	-7.7	-1.6	29%	9	5
Cc1ccc(Cn2nc(C)c(NC(=O)c3cc(-c4ccco4)on3)c2C)cc1	-31	-1	?	0.1	-2.8	29%	5	0
O=C(c1cccc(S(=O)(=O)N2CCOCC2)c1)N1CCCC1	·	-7	?	0.7	0.2	0%	-4	-12
O=C(NCCN1CCCC(O)C1)c1cc(COc2ccc(F)cc2Cl)on1 (stereo not drawn)	1.5	1	-1.1	0.4	3.7	·	-1	3
CC(C)CN(C(=O)c1ccc2c(c1)OCO2)C1CCS(=O)(=O)C1 (stereo not drawn)	0.4	3	?	-0.7	2.1	11%	1	-1
CCOCCCNC(=O)C(c1ccc(C)cc1)N(Cc1ccc2c(c1)OCO2)C(=O)c1cnccn1 (stereo not drawn)	·	37	-2.7	-1.4	0.6	4%	1	-10
Cc1ccccc1Oc1nc2c(C)cccn2c(=O)c1/C=C(\C#N)C(=O)NC1CCS(=O)(=O)C1 (stereo not drawn)	-2.7	4	13	0.4	0.4	3%	-1	16
CCOC(=O)C(CC)Sc1nnc2n1C(C)(C)Cc1ccccc1-2 (stereo not drawn)	·	-10	-1.6	·	-0.4	-5%	-1	1
CC(C)C(OC(=O)c1ccco1)C(=O)NCc1cccs1 (stereo not drawn)	·	-7	3.0	0.7	-13	10%	-10	-19
N#Cc1c(-c2ccc(Cl)cc2)c2c([nH]c1=O)-c1ccccc1OC2	-11	1	68*	0.2	3.4	32%	·	2
O=c1[nH]c2ccc(NCc3ccc(OCc4ccccc4Cl)cc3)cc2[nH]1	-4.3	11	7.5	-0.7	0.3	-5%	5	-8
O=c1c(Cc2ccc(F)cc2)c(O)ccn1CCCn1ccnc1	0.1	-2	-3.2	0.2	-2.6	-3%	-6	-3
COc1ccc2nc(NC(=O)CNS(=O)(=O)c3cccs3)sc2c1	3.5	3	-1.3	0.9	2.5	2%	-2	-2
CCOc1ccccc1NC(=O)c1nnn(-c2ccc3c(c2)OCCO3)c1N	-1.4	7	-1.5	1.1	-10	·	-5	25
O=C(CCCN1C(=O)/C(=C/c2ccc(F)cc2)SC1=S)NCCCn1ccnc1	11	-21	0.4	-0.6	0.6	5%	5	-22
COc1ccc(C(=O)N2CCCC(CO)(Cc3ccccc3C)C2)o1 (stereo not drawn)	2.0	3	0.1	0.8	1.5	·	4	-12
CCOc1ccc(/C=N/NC(=O)C(OC)c2ccccc2)cc1 (stereo not drawn)	0.1	3	6.4	-1.6	1.0	-8%	-1	-12
COc1ccc(-c2csc(NC(CO)c3nc4ccccc4n3CCOCCO)n2)cc1 (stereo not drawn)	4.7	-8	?	-1.3	-6.5	·	-8	-10

Screens as filed in PubChem BioAssay.
